Source: PubChem BioAssay
Cruzain inh noDet = qHTS Assay for Promiscuous and Specific Inhibitors of Cruzain (without detergent); 200,000 compounds, 2.3% hits; Cruzipain (Trypanosoma cruzi), P25779; purified cruzain, Z-FR-AMC fluorescence, no detergent; Potency, µM, for inactives: max response, negative = inhibition, usual class: inhibitors;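 further: plate controls were enzyme without inhibitor for no effect and buffer without enzyme for full effect; nearly all actives have a fitted effect of over 40% in size; top concentration of the series not given in the record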
Target sequence (P25779 123-467 limits assumed): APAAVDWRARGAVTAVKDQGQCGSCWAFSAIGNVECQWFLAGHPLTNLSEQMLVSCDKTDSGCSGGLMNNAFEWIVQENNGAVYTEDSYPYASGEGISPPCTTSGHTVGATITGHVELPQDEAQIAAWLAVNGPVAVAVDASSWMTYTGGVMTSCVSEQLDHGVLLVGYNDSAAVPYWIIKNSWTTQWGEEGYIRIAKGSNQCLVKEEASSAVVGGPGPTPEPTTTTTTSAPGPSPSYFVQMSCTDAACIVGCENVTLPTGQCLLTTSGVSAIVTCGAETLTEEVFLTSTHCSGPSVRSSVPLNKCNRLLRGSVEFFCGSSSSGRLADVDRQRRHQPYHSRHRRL
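Detergent-free condition (0.00005% Triton X-100) in acetate buffer pH 5.5 with DTT. 1.5 nM enzyme and compound were pre-mixed 15 min, then 2 uM Z-FR-AMC substrate added; reaction progress from fluorescence change between first and third reads (60 s).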
NS1 inh = qHTS Assay for Inhibitors of Influenza NS1 Protein Function | 270,000 compounds, 0.4% hits | Potency, µM (titrated, usually from 46.1 µM), for the others: at the highest dose activity, positive = more growth | S. cerevisiae slowed by influenza A NS1, growth recovery by OD600; active means well fitted rising curve with a large enough effect; inconclusive means small, poorly fitted or top-dose-only effect; inactive means no such curve, though single readings can be large or run the other way; further: nearly all actives have a fitted effect of over 50% in size
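S. cerevisiae expressing influenza A NS1, grown in glucose, washed, then diluted 1:100 into pH 6.0 -URA galactose medium with 23 nl compound. Growth recovery read as OD600; NS1-free strain serves as control.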
LASV entry inh = qHTS for Inhibitors of binding or entry into cells for Lassa Virus. Potency, µM (doses to about 37.9 µM), for inactives: top-dose activity change, negative = inhibition, hits mostly inhibitors. Lassa virus pseudotype entry inhibition, cell reporter; control for the full effect not named in the record. 300,000 compounds, 1.2% hits; active means well fitted inhibition curve with a large enough effect; inconclusive means small, poorly fitted or top-dose-only effect, or effect the other way; inactive means flat fitted curve, though single readings scatter; tested in HEK293 cells; further: on the % scale 0 is the no-effect control and ±100 the full control effect; nearly all actives have a fitted effect of over 50% in size; luciferase read-out
Marburg entry inh = qHTS for inhibitors of binding or entry into cells for Marburg Virus; Marburg virus pseudotyped entry inhibition, cell reporter; control for the full effect not named in the record; about a third of the inactives were read at about 46 µM; 300,000 compounds, 1.8% hits; Potency, µM (doses to about 37.8 µM), without a hit: at the top dose activity change, negative = inhibition, hits mostly inhibitors; AID 540276, 2011; active = well fitted inhibition curve with a large enough effect; inconclusive = small, poorly fitted or top-dose-only effect, or effect the other way; inactive = flat fitted curve, though single readings scatter; tested in HEK293 cells; about a fifth of its hits are not listed in these tables; further: on the % scale 0 is the no-effect control and ±100 the full control effect; luciferase read-out
Cruzain inh Det = qHTS Assay for Promiscuous and Specific Inhibitors of Cruzain (with detergent); purified cruzain, Z-FR-AMC fluorescence, 0.01% Triton; Potency, µM, inactives show max response, negative = inhibition, hits mostly inhibitors; 200,000 compounds, 0.43% hits; AID 1478, 2009;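 further: plate controls were neutral wells for no effect and buffer without enzyme for full effect; nearly all actives have a fitted effect of over 40% in size; top concentration of the series not given in the record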
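Enzyme 1.5 nM, Z-FR-AMC 2 uM, NaOAc 100 mM pH 5.5, DTT 5 mM, Triton X-100 0.01%; 15 min RT compound preincubation; kinetic ex360/em450, 60 s delta.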
RE007 growth inh = qHTS Assay for Inhibitors of the HIV-1 protein Vpr | S. pombe RE007 Vpr strain, BacTiter-Glo ATP luminescence, 24 h; control for the full effect not named in the record | Potency, µM (titrated, usually from 92.2 µM), for the others: top-dose activity change, negative = less growth | 360,000 compounds, 0.21% hits; active = well fitted falling curve with a large enough effect; inconclusive = small, poorly fitted or top-dose-only effect; inactive = no such curve, though single readings can be large or run the other way;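 further: on the % scale 0 is the no-effect control and ±100 the full control effect; nearly all actives have a fitted effect of over 50% in size; the assay follows cell death caused by Vpr and the record does not say whether a fall means rescue or toxicity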
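Fission yeast RE007 carrying one integrated HIV-1 vpr copy, seeded at OD 0.01 in PMG+AL medium with 23 nL pinned compound. Grown 24 h at 30 degrees; viability read by BacTiter-Glo luminescence after 5 min.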
2A StopGo = High Throughput Screening for Foot and Mouth Disease Virus Antivirals. human cells with a luciferase reporter of 2A StopGo recoding; control for the full effect not named in the record. Potency, µM (highest dose often 57.9 µM), for the others: at the top dose signal change, negative = less light. 410,000 compounds, 1.2% hits; active = well fitted falling curve with a large enough effect; inconclusive = small, poorly fitted or top-dose-only effect; inactive = no such curve, though single readings can be large or run the other way; tested in HEK293T cells; further: on the % scale 0 is the no-effect control and ±100 the full control effect; nearly all actives have a fitted effect of over 45% in size; luciferase light after 4 h
SARS PLP yeast = qHTS of Yeast-based Assay for SARS-CoV PLP | S. cerevisiae expressing SARS-CoV PLpro, growth rescue; control for the full effect not named in the record | Potency, µM (series often up to 32.9 µM), for inactives: top-dose activity, positive = growth rescue | 330,000 compounds, 0.19% hits | AID 485353, 2010; active means well fitted rising curve with a large enough effect; inconclusive means small, poorly fitted or top-dose-only effect; inactive means no such curve, though single readings can be large or run the other way; further: 0% is about no effect; nearly all actives have a fitted effect of over 55% in size; growth read by luminescence after 48 h
* marks the source's active call; other numbers are inactive results; u = inconclusive; x = not tested or not shown; & = joins results of further samples; [ ] = dose if it differs, or a comment. Unless noted, the call rests on the fitted dose curve; in most records, active means well fitted curve in the direction sought with a large enough effect; inconclusive means small, poorly fitted or top-dose-only effect, or another doubt; inactive means no such curve, though single readings can be large; an effect the other way counts as inactive or inconclusive. Potency means the concentration at half of the fitted maximal effect.

SMILES	Cruzain inh noDet	NS1 inh	LASV entry inh	Marburg entry inh	Cruzain inh Det	RE007 growth inh	2A StopGo	SARS PLP yeast
CCC(c1nnnn1Cc1ccc2c(c1)OCO2)N1CCN(c2ccccc2)CC1 (centres undefined)	10%	-50%	0%	-6%	3.8%	1%	-11%	-7%
C=CCNC(=O)CN(Cc1ccccc1)S(=O)(=O)c1ccccc1	x	11%	-7%[46.1 µM]	-22%[46.1 µM]	x	6%	-12%	2%
CC(=O)c1ccccc1N(C(=O)c1ccco1)C(C(=O)NC1CCCC1)c1ccc(N2CCOCC2)cc1 (centres undefined)	x	-5%	-13%	-11%[46.1 µM]	x	0%	20%	0%
O=C(Nc1ccc2nc(-c3ccco3)[nH]c2c1)c1ccco1	-15%	-47%	1%	-4%	-4.7%	-11%	26%	-13%
COc1cccc(NC(=O)Nc2nnc(Cc3ccccc3F)s2)c1	x	2%	x	x	x	3%	u	1%
CC(C)n1cc(C(=O)c2ccccc2O)cc(C#N)c1=O	x	x	0%[46.1 µM]	-1%[46.1 µM]	x	1%	-2%	-7%
Cc1nn2c(C)c(C(=O)NC(C)c3ccccc3)cnc2c1-c1ccc(F)cc1 (centres undefined)	-10%	x	3%[46.1 µM]	x	-0.4%	x	-20%	x
COC(=O)c1ccc(/C=N/NC(=O)C(=O)N2CCCCCC2)cc1	x	0%	x	x	x	1%	0%	2%
Cc1ccc(C(=O)C2CCN(S(=O)(=O)c3c(C)noc3C)CC2)cc1	x	-2%	6%	-15%[46.1 µM]	x	-3%	-15%	-1%
O=S(=O)(c1ccccc1)N1CCCC1c1nc2ccccc2s1 (centres undefined)	2%	-14%	-7%	-7%	-3.5%	14%	u	4%
COC(=O)[C@@H]1C[C@H]1[C@@H](NC(=O)c1ccccc1)c1ccccc1	-1%&2%	-18%	0%	-2%	1.5%&0.2%	6%	-16%	-4%
CC(C)CC(=O)Nc1ccccc1N1CCOCC1	11%	5%	-1%	4%[46.1 µM]	0.6%	-4%	-22%	22%
Cc1cc(C)c(S(=O)(=O)Nc2cc(-c3cn4ccccc4n3)ccc2C)cc1C	u	x	u	-8%[46.1 µM]	-5.6%	x	-17%	x
O=C(O)c1cccc(NC(=O)c2cccc(S(=O)(=O)Nc3cccc(C(=O)O)c3)c2)c1	-1%	x	16%[46.1 µM]	x	-1.7%	x	-10%	x
O=C(COC(=O)Cc1ccccc1[N+](=O)[O-])NCc1ccc(F)cc1	-1%	-8%	15%[46.1 µM]	-8%[46.1 µM]	-0.7%	7%	-4%	3%
Cc1sc2ncn(CC(=O)NCC3COc4ccccc4O3)c(=O)c2c1S(=O)(=O)N1CCOCC1 (centres undefined)	x	x	-27%	u	x	-27%	-11%	-2%
O=C(CNC(=O)c1cn2ccccc2n1)Nc1ccc(F)c(F)c1	x	x	1%	6%	x	-4%	13%	-12%
O=c1cc(-c2ccccc2)nc2cc(-c3ccco3)[nH]n12	x	8%	x	x	x	19%	32%	1%
O=C(CCN1CCc2ccccc2C1)Nc1ccccc1	1%	12%	21%	u	4.3%	16%	20%	-4%
O=S(=O)(Nc1ccc2cn[nH]c2c1)c1cc(Br)ccc1Br	x	x	1%	-2%	x	9%	108%[activator]	-1%
COC(=O)C(Cc1ccccc1)NC(=O)CCC(=O)NC(C)CCc1ccccc1 (centres undefined)	x	-12%	x	x	x	-19%	-13%	-1%
COc1ccc(-n2ncc3c(N4CCN(c5cc(C)ccc5C)CC4)ncnc32)cc1	-22%	3%	x	2%	-9.8%	7%	u	4%
Cc1cccc2sc(N(CCN(C)C)C(=O)/C=C/c3cccs3)nc12	0%	3%	u	u	-17%	0%	u	-2%
Nn1c(Cc2ccccc2)nnc1Cc1ccccc1	x	x	-5%[46.1 µM]	-5%[46.1 µM]	x	6%	-10%	x
CC(C)CC(=O)N1CCN(C(=O)c2ccc(-c3ccccc3)cc2)CC1	x	10%	x	x	x	-7%	-27%	-9%
COc1ccccc1NC(=S)NNC(=S)Nc1ccc(OC(F)F)cc1	2%	-8%	u	20%	-2.0%	3%	11%	14%
COc1ccccc1NS(=O)(=O)c1cc(NC(=O)CCC2CCCC2)ccc1N1CCOCC1	x	-13%	x	x	x	-4%	26%	0%
O=C(CSc1ncccn1)c1ccccc1Br	-18%	-6%	u	20%	10%	-25%	67%[activator]	-2%
O=C(NCc1ccccc1)C(=O)NCC1CCCN1S(=O)(=O)c1cccs1 (centres undefined)	x	x	-12%	-1%	x	-5%	-3%	4%
COc1ccc(C)cc1NC(=O)NNC(=O)C(C)Oc1ccc([N+](=O)[O-])cc1 (centres undefined)	x	-8%	x	x	x	-7%	-12%	-7%
COc1ccc(Cl)cc1C(=O)Nc1ccc(S(=O)(=O)N2CCCC2)cc1	u	3%	-2%	13%	-4.2%	-26%	-20%	-6%
CCOC(=O)c1c(C)c(C)n(Cc2cccc(OC)c2OC)c1C	0%	-12%	2%	-29%	-4.7%	-9%	u	15%
O=C1CSC(c2cccnc2)N1Cc1ccc(Cl)cc1Cl (centres undefined)	x	4%	-8%[46.1 µM]	-15%[46.1 µM]	x	8%	-4%	-2%
Clc1cccc(-c2cc3nc4c(c(NCc5ccco5)n3n2)CCCC4)c1	-19%	-89%	-3%	-28%	-3.1%	-8%	x	-40%
O=C(NCc1cccnc1)C(=O)NCC(c1cccnc1)N1CCN(c2ccc(F)cc2)CC1 (centres undefined)	3%	x	20%[46.1 µM]	x	-1.2%	x	0%	x
CCn1c(/C=N/n2cnnc2)nc2ccccc21	-3%	0%	0%	-6%	0.9%	16%	x	2%
C[C@@]12C(=O)N(CC3CC3)CC(=O)N1[C@H](/C=C/c1ccccc1)[C@@H]1C(=O)N(c3ccccc3)C(=O)[C@@H]12	x	19%	x	x	x	4%	-12%	3%
CCOC(=O)c1ccc(NC(=O)CCc2ccc(C)o2)cc1	-1%	-19%	1%	3%	-1.4%	-1%	0%	-9%
Cn1c(SCC(=O)c2ccc(F)cc2)nc2cccnc21	-2%	-6%	5%	5%	0.1%	-23%	-12%	5%
CCCC(C)C(=O)Nc1ccc(Cl)cc1Cl (centres undefined)	0%	6%	0%	0%	-0.3%	-4%	3%	-2%
C=CCOc1ccc(/C=C/C(=O)OC(C)C(=O)Nc2ccc(NC(C)=O)cc2)cc1 (centres undefined)	x	x	-4%	3%	x	4%	-11%	0%
COc1ccc2[nH]cc(CCNC(=O)c3cnn(-c4ccccc4Cl)c3C3CCN(C(=O)OC(C)(C)C)CC3)c2c1	1%	x	u	x	-8.2%	x	-24%	x
Cc1cc(C)cc(N2CC(C(=O)OCC(=O)Nc3cc(C)on3)CC2=O)c1 (centres undefined)	x	13%	-8%[46.1 µM]	1%[46.1 µM]	x	-8%	3%	3%
CCOC(=O)C1=C(C)NC(=O)CC1c1cc2c(cc1Br)OCO2 (centres undefined)	5%	u	u	u	3.8%	-13%	0%	11%
Cc1ccc2cc(C(c3nnnn3C3CCCC3)N(Cc3cccnc3)Cc3ccco3)c(=O)[nH]c2c1 (centres undefined)	-6%	-14%	-3%	u	-6.5%	-9%	x	2%
CCC(Oc1ccccc1OC)C(=O)N1CC(=O)Nc2ccccc21 (centres undefined)	x	6%	-30%	1%[46.1 µM]	x	-4%	1%	0%
CC(=O)N/C(=C\c1ccccc1)C(=O)OC(C)C(=O)c1ccccc1 (centres undefined)	x	x	13%	-18%	x	21%	12%	1%
CN(CC(=O)NC1CCCc2ccccc21)C1CCCCC1 (centres undefined)	x	x	1%	-25%[46.1 µM]	x	-9%	15%	1%
Nc1nc2n(n1)C(c1ccc(Cl)cc1)CC(c1ccc(F)cc1)N2 (centres undefined)	-12%	6%	-7%	-3%	-1.3%	2%	-25%	-3%
Cc1cc(NC(=O)CSc2nc(C(C)C)nc3c2c(=O)n(C)c(=O)n3C)no1	-18%	4%	x	x	-1.0%	-7%	u	-2%
O=C(O)/C(=C\c1ccccc1)c1ccccc1	-2%	3%&-6%	15%	8%[46.1 µM]	4.2%	2%	-12%	0%
COc1ccccc1CNC(=O)[C@H](C)NC(=O)C1CCN(C(=O)[C@@H](N)CCSC)CC1	x	-5%	x	x	x	-9%	-3%	3%
CCCCC(CC)CNC(=O)CCCCCn1c(=O)[nH]c2ccsc2c1=O (centres undefined)	u	x	18%[46.1 µM]	-25%[46.1 µM]	-4.5%	x	-8%	x
O=C(NC1(C(F)(F)F)C(=O)Nc2c1c(=O)[nH]c(=O)n2Cc1ccccc1)c1ccco1 (centres undefined)	-7%	16%	5%	7%	3.1%	-8%[3.69 µM]	-17%	4%
Cc1cccc(C)c1NC(=O)Cn1nc(C)n2cccc2c1=O	x	-10%	x	x	x	-12%	-14%	2%
Cc1ccccc1C(=O)Nc1ccc(S(=O)(=O)N2CCN(C)CC2)cc1	-1%	-1%	1%	2%	-2.8%	0%	-21%	-8%
CCN(C(=O)CCS(=O)(=O)c1cc(Br)cc2c1N(C(=O)C1CC1)CC2)c1cccc(C)c1	0%	x	-9%[46.1 µM]	16%[46.1 µM]	-1.2%	x	5%	x
Fc1cccc(CSc2ccc(-c3ccc4c(c3)OCO4)nn2)c1	8%	1%	u	-19%	-2.7%	1%	0%	12%
O=c1cc(-c2ccccc2)oc2ccc(Cl)cc12	x	x	u	-6%	x	3%	20%	x
C/C(N)=C(/C#N)C(=O)COc1ccc(Cl)cc1Cl	x	x	u	u	x	-25%	0%	-2%
COC(=O)c1cc2occc2n1Cc1nc(-c2ccccc2C)oc1C	5%&7%	14%	11%	u	-1.8%&-2.2%	3%	-13%&-18%	-1%
